KCNQ2 pot = enhances the rat KCNQ2 potassium channel. O88943. CHO-K1 KCNQ2, FluxOR thallium flux fluorescence; stronger effect = higher value. B-score at 10 µM. 310,000 compounds, 0.54% hits;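 active = fluorescence ratio B-score at least 3 SD of library B-scores, with initial fluorescence B-score within 3 SD, cut at about 5.3 in these data; same plate scores as AID 2156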;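 also: B-score of peak minus minimum over baseline fluorescence ratio after K+ and Tl+ stimulus; positive B-score means potentiation of KCNQ2 with more thallium influx and brighter signal; only the inactives scoring about 0 or higher are listed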
Target sequence (O88943 whole entry, looked up): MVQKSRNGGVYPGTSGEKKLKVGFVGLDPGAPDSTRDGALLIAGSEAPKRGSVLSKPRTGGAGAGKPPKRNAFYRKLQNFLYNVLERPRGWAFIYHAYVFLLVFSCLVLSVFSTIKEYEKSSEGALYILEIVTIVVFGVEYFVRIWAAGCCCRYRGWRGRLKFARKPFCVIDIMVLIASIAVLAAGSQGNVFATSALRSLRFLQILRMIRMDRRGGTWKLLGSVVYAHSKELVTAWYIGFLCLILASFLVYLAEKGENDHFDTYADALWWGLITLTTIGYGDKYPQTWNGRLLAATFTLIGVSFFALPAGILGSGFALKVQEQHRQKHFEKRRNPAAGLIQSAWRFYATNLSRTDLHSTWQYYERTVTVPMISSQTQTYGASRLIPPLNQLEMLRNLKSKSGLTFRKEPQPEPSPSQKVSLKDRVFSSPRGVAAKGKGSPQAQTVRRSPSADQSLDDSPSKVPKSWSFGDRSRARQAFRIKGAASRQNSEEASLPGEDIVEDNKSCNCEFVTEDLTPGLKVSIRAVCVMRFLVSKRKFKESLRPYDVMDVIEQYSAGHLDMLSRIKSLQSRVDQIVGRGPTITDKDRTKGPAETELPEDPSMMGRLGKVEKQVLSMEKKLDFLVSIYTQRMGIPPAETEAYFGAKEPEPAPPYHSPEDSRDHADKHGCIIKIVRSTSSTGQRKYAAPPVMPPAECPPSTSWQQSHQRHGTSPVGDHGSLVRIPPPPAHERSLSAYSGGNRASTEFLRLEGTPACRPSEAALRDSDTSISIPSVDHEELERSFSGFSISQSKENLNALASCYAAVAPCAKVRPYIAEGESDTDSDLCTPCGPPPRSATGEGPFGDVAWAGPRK
KCNQ2 pot baseline = further read-out of KCNQ2 pot, marked with its call; B-score; compound at 10 µM; measured here: initial fluorescence intensity artifact check;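 brightness before thallium and not channel activity; 0 = typical well and far values either way flag optical interference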
* = called active by the depositor. An excerpt (hit frequency here may not be typical).

Each structure is followed by: KCNQ2 pot, KCNQ2 pot baseline
- CCOc1cc(-c2cc(-c3ccc(OC)cc3)nc(N)c2C#N)ccc1O
    0.65, -0.04
- N#Cc1c(-c2ccccc2)nc(SCc2nc(N)nc(N3CCCCC3)n2)[nH]c1=O
    0.08, 0.4
- CCCS(=O)(=O)N1CCN(C(=O)c2cccnc2)CC1
    1.4, 1
- C/C(CC(=O)Nc1cc(C)ccn1)=N\NC(=O)c1ccncc1
    0.52, 2.8
- COc1ccc(OC)c(S(=O)(=O)Nc2c(C)cccc2C)c1
    2, -2.6
- CCCCNC(=O)CCC(=O)NNc1nc2ccccc2c2nc(-c3ccccc3)nn12
    1, -2.4
- CCC(=O)Nc1nnc(-c2ccccn2)o1
    0.89, 1.8
- CCOC(=O)c1sc(NC(=S)NC(=O)c2ccc(OC)cc2)nc1C
    2.4, 1.1
- CNCc1ccc(OCc2ccccc2)c(OC)c1
    0.78, 0.45
- CC(C)NC(=S)n1cc(C(=O)c2cc(Cl)cc(Cl)c2O)cn1
    1.5, 0.46
- N#Cc1nc(COc2ccccc2)oc1N1CCCC1
    0.59, 0.83
- CCC(=O)NC1(C(F)(F)F)C(=O)Nc2c1c(=O)n(C)c(=O)n2C (stereo unspecified)
    1.6, 0.59
- CCOC(=O)C(Cc1ccccc1)NC(=O)CCC(=O)c1ccc(OC)cc1 (stereo unspecified)
    0.37, -0.02
- O=C(N/C(=C\c1ccc([N+](=O)[O-])cc1)C(=O)N1CCOCC1)c1ccccc1
    0.96, 0.57
- CNC(=O)/C(C#N)=C/c1cc(C)n(-c2ccc(N3CCOCC3)cc2)c1C
    0.31, 0.16

Each structure is followed by: KCNQ2 pot, KCNQ2 pot baseline
- COc1ccc(-n2nnc3c(SCC(=O)c4ccccc4)ncnc32)cc1
    1.3, -1.3
- Cc1ccc(C(=O)Nn2cnnc2)cc1S(=O)(=O)N1CCOCC1
    0.11, -0.85
- OCC1OC(n2nc3ccccc3n2)C(O)C(O)C1O (stereo unspecified)
    1.6, -1.5
- N#Cc1cn(CCOC(=O)c2cccc(C(F)(F)F)c2)c(=O)[nH]c1=O
    0.85, -0.58
- Cc1cccc2c1nc(-c1ccccc1)n1cnnc21
    0.47, 1.1
- CCOC(=O)c1c(NC(=O)CSC(=S)N2CCOCC2)sc(C)c1C
    0.72, -0.38
- CCCC(=O)N1CCN(c2ccc(NC(=O)c3ccc(OCC)c([N+](=O)[O-])c3)cc2)CC1
    0.36, 1.9
- COc1ccc2c(c1)c(/C=N/Nc1ccc(C(=O)O)cc1)c(C)n2C
    0.51, 1.6
- Cc1cc(-n2c(C)cc(C(=O)COc3ccc4ccc(=O)oc4c3)c2C)no1
    0.93, -0.46
- COc1ccc(/C=N/OC(=O)Nc2ccccc2)cc1[N+](=O)[O-]
    2.2, -3.3
- O=c1cnn(-c2ccc(Cl)cc2Cl)c(-c2ccccc2)c1
    0.3, 1.8
- O=[N+]([O-])c1ccc(NC(=S)NCCc2ccccc2)cc1
    4.9, -1.8
- CN(Cc1cn(C)nc1-c1ccccc1F)C1CCOC1 (stereo unspecified)
    1.4, -0.63
- Cc1ccccc1OCC(=O)NNC(=O)C1CCCCC1C(=O)O (stereo unspecified)
    0.4, 0.16
- C=CCn1c(=NC(=O)c2cccs2)sc2cccc(OC)c21
    0.7, 0.18

Reprinted from the part before: 4 entries; new compounds follow.
Each structure is followed by: KCNQ2 pot, KCNQ2 pot baseline
- O=[N+]([O-])c1ccc(NC(=S)NCCc2ccccc2)cc1
    4.9, -1.8
- CN(Cc1cn(C)nc1-c1ccccc1F)C1CCOC1 (stereo unspecified)
    1.4, -0.63
- Cc1ccccc1OCC(=O)NNC(=O)C1CCCCC1C(=O)O (stereo unspecified)
    0.4, 0.16
- C=CCn1c(=NC(=O)c2cccs2)sc2cccc(OC)c21
    0.7, 0.18
- O=c1nc(N2CCCC2)nc(Nc2ccccc2)[nH]1
    0.18, 0.01
- CCOC(=O)C1=C(C)NC2=C(C(=O)C(C(=O)OCC)C(c3ccccc3OC)C2)C1c1ccccn1 (stereo unspecified)
    0.44, 2.5
- Cc1ccc(CN2C(=O)C3CCCN3c3ccc(C#N)cc32)cc1 (stereo unspecified)
    0.96, -1.4
- Cc1nc2cc(NC(=O)NC(C)(C)C)ccc2n1C
    0.66, 0.13
- CCNc1nc(-c2cc3ccccc3o2)cs1
    0.54, -1.4
- COc1cccc(Nc2nnc(SCC(=O)N3CC(=O)Nc4ccccc43)s2)c1
    1.9, -0.85
- COc1ccc(C)cc1NC(=O)c1cc2ccccc2cc1OCC(=O)NCc1ccco1
    0.09, -0.95
- Cc1cc(=O)oc2cc(NC(=O)C3CCCC3)ccc12
    1.4, -0.35
- COCC(=O)N/N=C(\C)CC(=O)Nc1ccccc1C(N)=O
    1.8, -0.55
- COCCCNC(=S)N1CCN(Cc2ccc3c(c2)OCO3)CC1
    0.45, 4.7
- CCN(CC)S(=O)(=O)c1ccc(C)c(NC(=O)CNc2cccc(S(=O)(=O)N3CCOCC3)c2)c1
    0.85, -0.2
- O=[N+]([O-])c1ccc(C[n+]2ccccc2)cc1
    0.44, 2.1
- Cc1cc(C(=O)Nc2nnc(-c3ccccc3)s2)no1
    0.91, 0.9
- CN(CC(=O)Nc1cccnc1)S(=O)(=O)c1ccc(Br)cc1
    0.8, -0.01
- CSc1nc2nc3c(cc2c(=O)n1-c1ccc(C)cc1)COC(C)(C)C3
    0.01, -1.6

Each structure is followed by: KCNQ2 pot, KCNQ2 pot baseline
- COc1ccc(C2=NS(=O)(=O)N(C)C(C(=O)N3CCCCC3)=C2)cc1OC
    0.39, 0.47
- Cc1cccc(NC(=O)C2CC(O)CN2C(=O)OCc2ccccc2)c1 (stereo unspecified)
    0.49, -0.06
- O=C(COC(=O)c1ccc(O)cc1O)c1ccc(Cl)cc1
    0.56, -0.08
- CCCSc1nc2c(c(=O)n(C)c(=O)n2C)n1Cc1ccc(C)cc1
    1.1, -0.6
- O=C(NCC(c1cccs1)N1CCOCC1)c1cn(-c2ccccc2)nc1-c1ccc(Cl)cc1 (stereo unspecified)
    0.54, -0.36
- CCc1ccc(-c2nc(CS(=O)CC(=O)NCc3ccccc3)c(C)o2)cc1 (stereo unspecified)
    3.7, -0.6
- Cc1ccc(CS(=O)(=O)CCC(=O)NC2CC2)cc1
    0.76, 0.45
- COc1ccc(CCNC(=O)/C=C/c2ccc3ccccc3n2)cc1OC
    0.04, -0.38
- CC(C)c1ccc(/C=C/c2ccc(=O)n(C)n2)cc1
    4.5, -2.7
- Cc1ccccc1C(=O)OC1OC(=O)C(Cl)=C1N1CCOCC1 (stereo unspecified)
    0.93, 0.89
- O=C(Cn1nc(-c2cccc([N+](=O)[O-])c2)c2ccccc2c1=O)Nc1cccnc1
    0.19, -0.5
- COc1ccc(S(=O)(=O)N2CCC(O)(c3ccc(Cl)cc3)CC2)cc1
    0.47, -0.73
- O=C(CNCc1ccco1)Nc1ccc(N2CCCCCC2)cc1
    3.7, 0.56
- CC1(C)CC(=O)C(C(C2=C(O)CC(C)(C)CC2=O)c2cccs2)C(=O)C1 (stereo unspecified)
    6.2*, -1.2*
- O=C(NCc1ccccc1)c1ccc(F)c(F)c1
    2.4, 0

Each structure is followed by: KCNQ2 pot, KCNQ2 pot baseline
- O=C(c1ccccc1NS(=O)(=O)c1cccc(C(F)(F)F)c1)N1CCc2ccccc21
    0.09, -0.17
- COc1ccc(C(=O)CSc2nncn2C)cc1
    0.7, -1.4
- COc1cc(CC2COC(=O)C2(O)Cc2ccc(O)c(OC)c2)ccc1O (stereo unspecified)
    0.3, -0.45
- O=C(O)c1cc2ccccc2cc1Nc1ccccc1
    1.2, -1.8
- COc1cccc(CNC(=O)CCCn2nc(C)n3c(cc4sccc43)c2=O)c1
    1.2, -0.14
- O=C(CN1C(=O)NC2(CCc3ccccc32)C1=O)Nc1cc(C(F)(F)F)ccc1N1CCOCC1 (stereo unspecified)
    0.15, 0.94
- O=C(Nc1cnccn1)c1cccnc1
    1.2, -0.47
- CN(CCCNC(=O)CCc1cn(C)c2ccccc12)C1CCCCC1
    1.5, 0
- CC1CCCCC1NC(=O)c1ccc(S(=O)(=O)N2CCN(C)CC2)cc1 (stereo unspecified)
    1.6, -1.2
- CCNC(=O)C(=O)NCCc1ccc(Cl)cc1
    2.2, -2
- CN(Cc1ccccc1)S(=O)(=O)c1nnc(NC(=O)c2ccccc2F)s1
    2.3, 0.43
- CSC1=NCCN1C(=O)c1cccc(C(F)(F)F)c1
    0.1, -0.42
- CCN1CCN(c2cc(C)c3cc(NC(=S)N4CCCCC4)ccc3n2)CC1
    0.07, 2.6
- Cn1c(SCC(=O)Nc2ccccc2F)nnc1-c1cccs1
    2.3, -0.79
- CC(=O)c1cccc(NC(=O)CCNC(=O)c2ccccc2Cl)c1
    0.58, -0.59

The closing four compounds of the section before come first, to join the parts.
Each structure is followed by: KCNQ2 pot, KCNQ2 pot baseline
- CSC1=NCCN1C(=O)c1cccc(C(F)(F)F)c1
    0.1, -0.42
- CCN1CCN(c2cc(C)c3cc(NC(=S)N4CCCCC4)ccc3n2)CC1
    0.07, 2.6
- Cn1c(SCC(=O)Nc2ccccc2F)nnc1-c1cccs1
    2.3, -0.79
- CC(=O)c1cccc(NC(=O)CCNC(=O)c2ccccc2Cl)c1
    0.58, -0.59
- COc1cccc(CNS(=O)(=O)c2cn(C)cn2)c1
    0.81, -1.8
- Cc1cc(N2CCN(c3ccccc3)CC2)nc(N)n1
    2.3, -1.3
- O=C(O)CC(NC(=O)Nc1ccccc1)c1ccc(OC2CCCC2)cc1 (stereo unspecified)
    1.1, -0.28
- COc1cccc(NC(=O)CN(C)C(=O)CSCc2nc3scc(-c4cccs4)c3c(=O)[nH]2)c1
    1.6, 0.06
- Cc1ccc(-n2c(SCC(=O)Nc3ccc4c5c(cccc35)CC4)nc(O)cc2=O)cc1
    2.3, -0.6
- O=C(COC(=O)c1ccc(S(=O)(=O)NCc2ccco2)cc1)NC1CCCCC1
    0.45, -0.42
- CCOc1cc(N2CCOCC2)c(OCC)cc1NC(=O)Cc1cccc2ccccc12
    8.2*, 0.01*
- COc1ccccc1NC(=O)C[n+]1ccccc1
    0.15, 0
- CCOc1ccc(NC(=O)CSc2nc3ccccc3nc2N2CCOCC2)cc1
    0.25, -0.81
- CCOC(=O)C(C)Sc1nnc(-c2ccccc2O)n1Cc1ccccc1 (stereo unspecified)
    0.04, -0.82
- O=c1cc(CN2CCN(CCO)CC2)c2cc3c(cc2o1)CCC3
    0.57, -1.1
- COCCN(Cc1cn(C)nc1-c1ccc(Oc2ccccc2)cc1)C(C)C
    0.13, 0.44
- COc1ccc(-n2ncc3c2CC(C)(C)CC3NC(=O)CCN2CCCC2=O)cc1 (stereo unspecified)
    0.11, -0.13
- O=C(/C=C/c1ccc(Cl)c([N+](=O)[O-])c1)NCc1cccnc1
    0.95, 1.2
- COc1ccc(CN2CCn3ncc(C(=O)Nc4cccc(C)c4)c3C2=O)cc1
    1.1, 1.1

Each structure is followed by: KCNQ2 pot, KCNQ2 pot baseline
- CCN1CCN(C(=S)Nc2cccc(C(F)(F)F)c2)CC1
    1.6, -0.95
- COc1cccc(N(CC(=O)Nc2cccc(C(C)=O)c2)S(C)(=O)=O)c1
    1.8, 0.82
- COc1cc(NC(=O)NCC2CCN(Cc3ccccc3Cl)CC2)cc(OC)c1OC
    1.1, -1.4
- COC(=O)c1sc(NC(=O)CC(C)C)c(C(=O)OC)c1C
    1.9, -0.96
- CNC(=O)c1c(N)sc2c1CCCCC2
    1.1, 0.02
- CN1CCc2nc(SCC(=O)Nc3ccc(OC(F)(F)F)cc3)c(C#N)c(-c3cccs3)c2C1
    0.95, 0.31
- Cc1ccccc1OCC(O)Cn1c(NCc2ccccc2)nc2c1c(=O)[nH]c(=O)n2C (stereo unspecified)
    0.21, -0.63
- Cc1ccc(Nc2nc(N)[nH]c(=O)c2N=O)cc1
    0.07, 1.5
- CC(NC(=O)C(C)(C)C)C(c1cccs1)N1CCN(Cc2ccccc2)CC1 (stereo unspecified)
    0.02, -2.5
- Cn1nnnc1SCc1ccc(Cl)cc1
    0.35, -1.6
- COc1ccc([N+](=O)[O-])cc1NC(=O)C(C)c1ccccc1 (stereo unspecified)
    0.22, -1.5
- COc1ccc(NC(=O)CN2C(=O)c3cccc4cccc2c34)c(OC)c1
    0.05, -1.4
- Nc1ncnc(Nc2cc(C(F)(F)F)cc(C(F)(F)F)c2)n1
    1.4, -0.58
- Cc1ccc(OCC(=O)N2CCCCCCC2)cc1
    0.64, -0.26
- COc1cc2ncnc(NCCCN3CCOCC3)c2cc1OC
    0.98, 0.01

Each structure is followed by: KCNQ2 pot, KCNQ2 pot baseline
- Cn1c(C(=O)N2CCC(C(=O)NCc3ccccc3)CC2)cc2sccc21
    0.02, 0.85
- CCOC(=O)Cn1cc(/C=N/NC(=O)c2cc3ccccc3o2)c2ccccc21
    0.21, 0.08
- CCOC(=O)C1Nc2c(cc(C(F)(F)F)cc2[N+](=O)[O-])C2c3ccccc3CC12 (stereo unspecified)
    1.8, -0.43
- Cc1ccc(Cc2nnc(SCC(=O)Nc3ccccc3Cl)[nH]c2=O)cc1
    0.14, 0.01
- COc1ccc(NS(=O)(=O)c2cccc(C(=O)NCc3cccnc3)c2)cc1
    0.47, -0.02
- CC(=O)Nc1cccc(/C(C)=N/NC(=O)c2ccc3c(c2)OCO3)c1
    0.12, -1.4
- CCOc1nc(C)ccc1-c1noc(-c2cccnc2)n1
    2.7, -0.62
- CN(C)c1ccc(/C=N/N=C2/SC(CC(=O)O)C(=O)N2c2ccc(O)cc2)cc1 (stereo unspecified)
    0.13, -1.2
- O=C(CN1C(=O)CSC1=O)N1CCc2ccccc2C1
    0.71, -0.26
- Cc1nc(SCc2ccc(F)cc2)n[nH]1
    2.2, -1.4
- C/C(=N\NC(=O)CN1CCN(Cc2ccc(C)cc2)CC1)c1ccncc1
    0.62, 1.6
- O=C(O)CCCNC(=O)CCn1nnc2ccccc2c1=O
    0.16, -0.12
- O=C(CSc1nc2ccccc2c(=O)[nH]1)Nc1ccc(N2CCOCC2)c(Cl)c1
    1.5, -0.71
- CCC(=O)Nc1cccc(-n2nnnc2SCC(=O)N(C(C)C)C(C)C)c1
    1, 0.57

Screens from PubChem.
